# Screening data: PubChem BioAssay, several laboratories
# A1 inh: inhibitors of the anti-apoptotic protein A1, read as caspase activation | caspase activation, % (test concentration not listed) | actives 0.066% (n = 330,000) | AID 2462 | MEF A1-2A-BIM cells, Caspase-Glo 3/7 luminescence, 3 h; percent of clofoctol response, vehicle zero;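 active means over half of replicate activation scores above 10%, or exactly half above 10 with the replicate mean above 10; inconclusive means replicate mean below 10 yet half the replicates above 10; inactive means over half of replicates below 10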;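 further: wells of about 30 µL received 50 nL stock; many hits fall short of the cut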
# LANA-H2A inh: blocks KSHV LANA binding to histone H2A/H2B; Q9QR71; cell-free LANA-H2A/H2B peptide, fluorescence polarization; inhibition, % (no concentration beside the values); actives 0.6% (n = 320,000); AID 2629; in the data active means inhibition mostly above about 10%, no sharp cut-off; inactive means mostly below about 6.7%;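 further: stock transfer was 7.5 nL into about 10 µL; 0% = median of vehicle wells and 100% = median of positive control wells; one replicate is shown; the record names a cut of 25% in any replicate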
# RanGTP-Impb inh: inhibitors of RanGTP-importin-beta interaction, primary screen, biochemical, FRET, CFP-Ran, YFP-importin-beta, homogeneous. AID 2216. cell-free CFP-Ran/YFP-importin-beta FRET ratio. inhibition, % (test concentration not listed). actives 1.1% (n = 300,000);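 active means most replicates above 15%; inconclusive means exactly half above 15%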;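 further: 0% = DMSO wells and 100% = Ran loaded with GDP instead of GTP; wells of about 40 µL received 100 nL stock; the first replicate is given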
# T cruzi inh: T. cruzi replication inhibition; T. cruzi beta-gal in NIH3T3, luminescence, 90 h; actives 1.4% (n = 300,000); inhibition, % (no concentration beside the values);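 active means mean inhibition across valid replicates above about 55%, limit read from the data; inconclusive means mean below that limit but half or more replicates reach it; inactive means mean below it, under half of replicates reach it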;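 further: signal also drops with host cell toxicity which is not excluded here; 0% = plate median of DMSO wells and 100% = zero luminescence signal; higher percent means less beta-gal luminescence so fewer parasites; stock transfer was 50 nL into about 50 µL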
# Beta2AR agonist: agonists of human beta-2 adrenergic receptor inducing internalization. actives 0.43% (n = 340,000). response, % (concentration not given with the values). P07550. Am2.2-beta2AR cells, FAP receptor internalization, flow cytometry; reference of the scale not given here;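 active means response above a set limit, near 3 SD of response in nonfluorescent compounds, cut at about 42% in these data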;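 further: stock transfer was 100 nL into about 11 µL; a reference agonist was the positive control; negative values mostly stem from fluorescent compounds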
# Target sequence (P07550 whole entry, looked up): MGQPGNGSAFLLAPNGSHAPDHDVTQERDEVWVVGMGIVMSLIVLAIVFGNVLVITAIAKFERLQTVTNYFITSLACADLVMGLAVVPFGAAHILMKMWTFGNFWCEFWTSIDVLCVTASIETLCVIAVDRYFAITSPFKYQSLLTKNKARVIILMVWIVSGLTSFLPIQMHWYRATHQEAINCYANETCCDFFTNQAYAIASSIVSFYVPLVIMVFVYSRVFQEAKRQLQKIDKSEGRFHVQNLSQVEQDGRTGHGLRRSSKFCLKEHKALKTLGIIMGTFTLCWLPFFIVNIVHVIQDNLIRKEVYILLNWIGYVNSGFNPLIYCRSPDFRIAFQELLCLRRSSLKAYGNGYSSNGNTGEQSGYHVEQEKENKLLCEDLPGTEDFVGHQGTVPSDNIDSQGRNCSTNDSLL
# UCH37 inh: human UCH37 deubiquitinating enzyme inhibition | Q9Y5K5 | AID 588478 | purified proteasome/UCH37, Ub-AMC cleavage fluorescence | inhibition, % (test concentration not listed) | actives 0.33% (n = 330,000);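 active means mean of two replicates above 20%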;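 further: 0% = compound-free wells with enzyme and 100% = wells lacking proteasome; stock transfer was 100 nL into about 20 µL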
# Target sequence (Q9Y5K5 whole entry, looked up): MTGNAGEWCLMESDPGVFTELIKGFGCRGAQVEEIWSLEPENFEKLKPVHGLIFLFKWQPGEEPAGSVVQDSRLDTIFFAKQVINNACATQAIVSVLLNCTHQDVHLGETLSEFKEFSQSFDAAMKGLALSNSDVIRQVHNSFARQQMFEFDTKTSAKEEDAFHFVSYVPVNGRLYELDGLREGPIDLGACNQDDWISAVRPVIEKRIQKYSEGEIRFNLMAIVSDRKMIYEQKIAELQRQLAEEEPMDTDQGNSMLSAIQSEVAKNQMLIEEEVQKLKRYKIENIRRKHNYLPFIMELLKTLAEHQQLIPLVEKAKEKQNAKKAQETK
#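 Assay system: Proteasome-bound UCH37. Buffer or medium: pH 7.4 Tris-HCl (50 mM) with ovalbumin, ATP-MgCl2, DTT. Incubation: 30 min preincubation with enzyme, 25 min cleavage at room temperature. Measured by: fluorescence, ex 355 nm, em 460 nm. Read-out basis: percent inhibition. Control set: wells without proteasome as full block, compound-free enzyme plus substrate as uninhibited.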
# Calb FLC: C. albicans growth modulation with fluconazole. AID 1979. actives 0.57% (n = 300,000). C. albicans CaCi-2 (fluconazole-resistant clinical isolate) + fluconazole, Alamar Blue growth, 48 h. growth inhibition, % (concentration not given with the values);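 active means most replicates above 75%; inconclusive means exactly half above 75%; inactive means most below 75%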;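 further: all wells also contain fluconazole at 8 µg/ml as a sub-toxic cotreatment; 0% = median of DMSO wells and 100% = median of geldanamycin control wells; wells of about 8 µL received 7.5 nL stock; the first replicate is given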
# Beta apoptosis: beta cell apoptosis inhibition | protection from apoptosis, % (test concentration not listed) | INS-1E cytokine-induced death, ATP luminescence, 48 h; percent of positive-control rescue, neutral wells zero | actives 0.8% (n = 300,000);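 active means all replicates at 75% or more, or half of them and the mean; inconclusive means half reach 75% but not the mean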;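 further: 0% = cytokine-treated negative control wells and 100% = positive control rescue; higher means more ATP so stronger rescue from cytokine killing; wells of about 40 µL received 100 nL stock; the first replicate is given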
# Starred values were filed as active, the others as inactive; ? = inconclusive; / = no result given.
SMILES,A1 inh,LANA-H2A inh,RanGTP-Impb inh,T cruzi inh,Beta2AR agonist,UCH37 inh,Calb FLC,Beta apoptosis
Cc1ccc(C)c(NC(=O)c2cc3ccccn3n2)c1,-5.1,3.7,-2.0,2,7,-3.0,5,1
Cc1ccc2c(c1)N(CC(=O)NCCCN1C(C)CCCC1C)C(=O)c1cccnc1O2 (configuration not stated),0.2,-3.6,-0.6,-11,-2,7.5,10,-2
Cc1ccc(NC(C(N)=O)c2c(C)[nH]c(=O)[nH]c2=O)cc1 (configuration not stated),2.1,5.3,?,-7,2,2.8,2,5
O=C1N[C@@H](Cc2ccccc2)COC(=O)[C@@H](Cc2ccc(F)cc2)CC/C=C/C[C@H]1CC(=O)N(CCO)Cc1ccccc1,-1.7,-1.6,/,/,1,0.2,/,-2
O=C1CCCCN1CC(=O)N1CCCC(N2CCN(c3ccccc3F)CC2)C1 (configuration not stated),0.5,1.8,1.6,-4,-5,4.1,4,0
O=C(Nc1nc(-c2ccccn2)cs1)c1ccc(-c2ccccc2F)o1,-1.2,6.5,/,/,13,-18,/,34
COc1ccc(C)cc1NC(=O)CSc1nnc2ccc(-c3ccncc3)nn12,0.2,-1.9,2.1,-5,3,5.4,-1,-2
COc1ccc(NS(=O)(=O)c2ccc(C)c(NC(=O)c3ccc(C)c(S(=O)(=O)N4CCOCC4)c3)c2)cc1,0.0,-0.4,3.2,1,6,3.7,12,2
O=C(Nc1ccon1)c1ccc(F)c(S(=O)(=O)N2CCCCC2)c1,1.9,-21,-0.6,-8,-1,/,0,-2
CCOC(=O)c1c(-c2ccc(C)o2)csc1NC(=S)NC(=O)c1cccs1,-1.0,-4.9,-2.9,37,7,7.1,2,32
NC(=O)CSc1nnc(-c2ccc(S(=O)(=O)N3CCCC3)cc2)o1,-0.1,1.6,3.0,-8,-2,-1.3,-7,/
Cc1ccc(S(=O)(=O)CCc2nnc(N)s2)cc1C,-0.5,-2.1,7.2,-18,5,3.2,27,-4
CSCCC(NC(=O)COc1ccccc1)C(=O)N1CC(C)OC(C)C1 (configuration not stated),0.7,0.6,/,/,-7,1.9,/,-9
O=C(Nc1ncccn1)c1cccc(F)c1,1.2,-5.1,3.2,-9,-5,2.5,-3,-7
Cc1nn(-c2ccccc2)c(N2CCCC2)c1/C=C1\N=C(c2ccc(OC(C)C)cc2)OC1=O,0.3,1.7,2.2,-7,0,5.1,-5,-4
Cc1nnc2sc(SCc3cccc(Cl)c3)nn2c1=O,0.9,3.4,0.0,-13,3,7.4,2,-2
O=C(NC1CC1)C1=C[C@H](c2c[nH]c3ccccc23)C[C@H](OCc2ccc(CO)cc2)O1,0.1,-5.8,-3.1,0,-7,0.4,-10,-5
CCn1cc(C=O)c2cc(S(=O)(=O)N3CCOCC3)ccc21,-0.1,0.1,-0.1,-10,2,7.6,-5,-1
COc1ccc(C2(CNC(C)=O)CCOCC2)cc1OC,-0.1,3.2,2.7,-26,1,3.7,2,-1
O=C(NCC1CCCO1)c1ccc(NC(=O)c2cccc(Br)c2)cc1 (configuration not stated),0.9,4.1,1.7,6,7,0.6,10,-6
CC(C)Sc1nc(O)c(Cc2ccccc2)c(=O)[nH]1,1.0,-4.1,4.5,4,-3,2.5,-13,-1
Cc1cc(NC(=O)c2cccc(C(=O)Nc3cc(C)on3)n2)no1,0.3,-4.5,1.7,-6,-18,5.6,0,-6
O=C1C=C(c2ccc(OC(F)(F)F)cc2)C[C@@H](c2ccc(Cl)cc2)C1,0.2,0.0,/,/,8,1.5,/,3
CSc1ccccc1OCc1cc(C(=O)N(C)C(C)c2nc(C)cs2)no1 (configuration not stated),-0.6,-1.4,-0.9,7,1,2.8,-6,-2
CCCCn1c(=O)[nH]c(=O)c2c1nc(-c1ccc(C(F)(F)F)cc1)n2C,0.3,1.8,1.4,13,-1,-51,11,-7
# Continued:
SMILES,A1 inh,LANA-H2A inh,RanGTP-Impb inh,T cruzi inh,Beta2AR agonist,UCH37 inh,Calb FLC,Beta apoptosis
Cc1ccc2cc(C)c3nnc(SCC(=O)c4cccs4)n3c2c1C,2.6,-0.2,1.8,4,-4,4.6,-10,3
Cc1ccc(COc2ccc(C)nc2[N+](=O)[O-])cc1,-3.7,-3.6,0.3,2,-3,5.1,-4,2
O=C(NCC(=O)N(c1cccc(F)c1)C(C(=O)NC1CCCC1)c1cccnc1)c1ccco1 (configuration not stated),0.6,0.0,0.0,-8,1,-0.6,27,-2
CCOC(=O)CN(C(=O)CCC(=O)Nc1cc(C)on1)C(C(=O)NC1CCCC1)c1cccnc1 (configuration not stated),-0.9,-3.6,?,-5,17,2.9,22,-4
N#CC1=C(N)OC2=C(CC/C2=C\c2ccccc2)C1c1ccccc1 (configuration not stated),-0.4,22,1.4,-6,-173,1.5,26,5
COc1ccc(-c2cn(CCC(=O)NCc3ccc(C)cc3)c(CCN)n2)cc1,0.1,2.1,-0.6,-9,-9,1.3,-7,1
O=[N+]([O-])c1cccnc1NCCc1ccccc1,-7.5,-3.2,-3.8,3,-4,2.2,-22,-5
CSCCC(NC(=O)c1ccccc1Cl)C(=O)N1CCC1 (configuration not stated),0.1,-0.8,3.7,-4,-8,1.3,8,-3
COc1ccc(O)c(C(=O)c2cnc3onc(C(C)C)c3c2)c1,1.0,-4.3,-3.1,-8,-5,1.7,-5,4
CCCCCCOC(=O)C(C#N)c1nc2ccccc2nc1N1CCOCC1 (configuration not stated),-0.1,-1.4,6.5,8,-14,-10,-10,4
COc1cccc(C(=O)NC2CCN(CC(=O)NCc3ccccc3F)CC2)c1,-0.7,2.2,-1.0,14,6,0.7,0,1
Cc1cc(Br)c(NC(=O)CN2CCCC2)c(Br)c1,/,/,2.7,-3,-1,1.1,-12,/
Nc1c(C(=O)NCCc2ccccc2)sc2nc(N3CCOCC3)c3c(c12)CCCC3,-0.6,0.5,-0.9,44,5,-323,-4,0
CCN1C(=O)CC(NNC(=O)c2ccccc2)C1=O (configuration not stated),-0.3,-0.3,3.5,-3,0,0.0,-6,/
CC1CCN(C(=O)CC2C(=O)Nc3c2c(=O)n(C)c(=O)n3Cc2ccccc2)CC1 (configuration not stated),0.1,-4.1,-3.5,7,-9,-1.4,2,-1
CCOc1ccc(C(=O)CCC(=O)N(CC)CC(=O)Nc2c(F)cccc2F)cc1,0.6,-7.8,1.6,-5,6,-1.5,2,-6
COc1ccc(-c2nc3c4c(ncn3n2)-c2ccccc2CC42CCCC2)cc1,0.0,-1.9,1.5,7,9,/,10,-9
Cc1coc2cc3oc(=O)c(CCC(=O)N4CCC(C(=O)O)(c5ccccc5)CC4)c(C)c3cc12,-1.1,0.6,0.9,-3,-4,-42,1,-1
O=C(O)c1ccc(S(=O)(=O)N2CCC(n3nnc4cc(C(F)(F)F)ccc43)CC2)cc1,-0.9,1.0,-3.3,-2,7,1.9,-15,0
Cc1ccc(NC(=O)CS(=O)CC(=O)Nc2ccc(N3CCOCC3)cc2)cc1Cl (configuration not stated),-1.7,-1.2,-0.2,-4,5,4.5,3,-8
CN(C)N=Nc1ccc(S(=O)(=O)N2CCSC2C(=O)O)cc1 (configuration not stated),0.5,-2.1,6.8,-25,0,7.9,-9,1
COc1ccc(C(=O)n2nc(-c3ccco3)nc2SC)cc1OC,-0.3,0.6,3.2,0,4,0.7,3,4
CCC(C(=O)Nc1ccc(S(=O)(=O)N2CCN(C)CC2)cc1)c1ccccc1 (configuration not stated),1.4,2.2,2.9,8,15,1.0,-5,-4
CCCOc1ccc(C(C(=O)OCCN(CC)CC)c2ccccc2)cc1 (configuration not stated),0.1,2.9,5.0,5,15,6.1,8,2
COc1ccc(C(=O)NC(=S)NCc2ccccc2)cc1,-0.4,-5.5,-0.7,19,-9,2.5,-6,3
# The results go on:
SMILES,A1 inh,LANA-H2A inh,RanGTP-Impb inh,T cruzi inh,Beta2AR agonist,UCH37 inh,Calb FLC,Beta apoptosis
O=C(C[C@@H]1C/C=C\CCC(=O)OC[C@@H]2CCCN2C1=O)NCCO,-1.1,-3.0,/,/,0,1.4,/,-9
O=c1[nH]c2ccc(NS(=O)(=O)c3ccc(F)c(Cl)c3)cc2[nH]1,0.1,-3.5,-3.0,-2,5,-1.4,-3,-2
COc1ccccc1CCc1nnc(CCC(=O)N(C)Cc2ccncc2C)o1,0.0,-4.6,4.7,-3,-8,1.0,-5,-9
CC1=C(C(=O)N2CCOCC2)C(c2ccccc2F)NC(=O)N1 (configuration not stated),-1.0,12,5.0,-5,7,3.2,0,-1
COc1ccccc1N1CCN(Cc2cc(=O)c(OCC(=O)Nc3ccccc3)co2)CC1,1.5,-4.7,4.4,3,2,0.3,7,/
C=CCn1c(N)c(C(=O)N2CCOCC2)sc1=S,-0.1,-0.8,-2.7,-2,6,8.0,3,-1
CCOCC(=O)Nc1c(C(=O)N2CCN(c3ncccn3)CC2)oc2ccccc12,0.0,-1.0,1.3,9,8,1.7,-1,0
COc1cc(/C=N/NC(=O)c2cc(C)oc2C)ccc1OCc1ccccc1,?,-1.0,1.5,12,5,/,1,2
O=C(/C=C/c1cccc(F)c1)OCC(=O)N1CCc2ccccc21,0.4,-5.5,/,/,-2,3.5,/,5
CCCc1cc(=O)c2ccc(OCC(C)=O)cc2o1,0.4,2.7,0.2,-17,-4,2.6,-2,6
Cc1ccc(S(=O)(=O)N2CCCCC2)cc1NC(=O)Cc1c[nH]c2ccccc12,-0.1,2.9,-1.4,7,0,0.6,-17,2
COc1ccc(CCCNC(=O)CC#N)cc1OC,-0.1,-3.4,-0.9,-3,6,-1.6,-3,-3
COc1cc(/C=C/C(=O)O)cc(S(=O)(=O)NNC(=O)c2ccc3c(c2)OCO3)c1OC,0.2,9.9,/,/,0,4.0,/,2
Cc1cc(C=O)c(C)n1-c1ccc(N2CCOCC2)c([N+](=O)[O-])c1,0.0,8.5,-0.4,16,-1,2.9,-2,/
COC(=O)[C@@H]1C(c2c(OC)cc(OC)cc2OC)=NO[C@H]1C(=O)OC,-0.1,-0.2,0.8,-4,8,-0.4,-11,8
COc1ccc(CCn2c(C)cc(C(=O)CCl)c2C)cc1OC,0.6,1.6,-3.9,47,7,6.9,-26,0
C/C(Cc1ccccc1)=N\NC(=O)CNC(=O)c1ccccc1Cl,-0.7,-4.1,1.8,5,-3,/,2,10
CC12CCC(=O)N1C(C(=O)N1CCN(c3ccc([N+](=O)[O-])cc3)CC1)CS2 (configuration not stated),-0.8,0.7,/,/,1,8.3,/,-2
CCN(CC(=O)NCc1cccs1)C(=O)COc1ccccc1C#N,1.8,1.7,/,/,8,-1.8,/,-9
CC(C)(C)NC(=O)CN(Cc1ccc(F)cc1)C(=O)Cn1nnc(-c2ccc(F)cc2)n1,0.3,-6.5,2.2,1,-2,7.5,-3,2
CC(=O)c1ccc(N2CCN(C(=O)Cc3ccccc3)CC2)c(F)c1,-2.0,-1.4,3.1,12,-13,4.7,-10,3
